# High-throughput results: PubChem, Broad Institute
# A1 apoptosis 2: blocks A1, raising caspase activity | MEF A1-2A-BIM cells, caspase-Glo luminescence, 3 h; percent of clofoctol response, DMSO zero | caspase activation, % (no concentration beside the values) | 24,000 tested, under 10 active | AID 2465; in the data active = caspase activation above about 5.9%;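 also: wells of about 30 µL received 50 nL stock; the first replicate is given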
#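 System: mouse embryonic fibroblasts co-expressing A1 and BIM (A1-2A-BIM), primed for A1 dependence; amount: 2500 cells/well; doses: 50 nL pinned compound; schedule: cells settled overnight, compound exposure 3 h at 37 °C, 5% CO2; detection: Caspase-Glo 3/7 luminescence, 1 h at room temperature; read-out: Caspase-3/7 activation, seen as rise in luminescence signal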
# Active calls of the source: *.
Molecule,A1 apoptosis 2
C[C@H](CO)N1C[C@H](C)[C@H](CN(C)Cc2ccc(-c3ccccc3)cc2)Oc2ccc(NC(=O)Cc3cn(C)c4ccccc34)cc2CC1=O,0.0
CC(C)NC(=O)N(C)C[C@@H]1OCc2cn(nn2)CCCC(=O)N([C@H](C)CO)C[C@H]1C,0.8
C[C@@H]1CN([C@@H](C)CO)C(=O)c2cc(NC(=O)Nc3cccc4ccccc34)ccc2O[C@H]1CN(C)S(=O)(=O)c1ccc(F)cc1,1.7
CNC[C@@H]1OCc2cn(nn2)CCCC(=O)N([C@H](C)CO)C[C@@H]1C,-0.6
Cc1ccc(S(=O)(=O)Nc2ccc3c(c2)C(=O)N([C@@H](C)CO)C[C@H](C)[C@H](CN(C)C(=O)Cc2ccccc2)OCCCC[C@H](C)O3)cc1,-0.2
COc1cccc(-n2cc(C(=O)NO)nn2)c1,-0.9
C[C@H]1CN([C@@H](C)CO)C(=O)c2cc(NC(=O)CCCCCC(=O)Nc3ccccc3N)ccc2O[C@H]1CN(C)C(=O)NC1CCCCC1,-0.6
C[C@H](CO)N1C[C@H](C)[C@@H](CN(C)CC2CCCCC2)Oc2ccc(NC(=O)Cc3cn(C)c4ccccc34)cc2CC1=O,-1.7
C[C@@H]1CN([C@H](C)CO)C(=O)c2cccc(NC(=O)c3ccncc3)c2O[C@@H]1CN(C)Cc1ccccc1,1.7
Cc1noc(C)c1NC(=O)Nc1ccc2c(c1)CC(=O)N([C@H](C)CO)C[C@H](C)[C@@H](CN(C)CC1CCCCC1)O2,-1.0
COc1ccc(NC(=O)Nc2ccc3c(c2)CC(=O)N([C@H](C)CO)C[C@H](C)[C@H](CN(C)S(C)(=O)=O)O3)cc1,0.3
COc1ccccc1CN(C)C[C@@H]1OCc2cn(nn2)CCCC(=O)N([C@H](C)CO)C[C@H]1C,-0.1
C[C@@H]1CN([C@@H](C)CO)C(=O)c2cc(NC(=O)Nc3cccc4ccccc34)ccc2O[C@H]1CN(C)C,0.7
Cc1noc(C)c1S(=O)(=O)N(C)C[C@H]1OCCCC[C@H](C)Oc2ccc(NC(=O)NC(C)C)cc2C(=O)N([C@@H](C)CO)C[C@@H]1C,-0.9
C[C@@H]1CCCCO[C@H](CN(C)Cc2ccccc2)[C@@H](C)CN([C@H](C)CO)C(=O)c2cc(NS(=O)(=O)c3ccccc3)ccc2O1,-0.9
C[C@@H]1CCCCO[C@@H](CN(C)C(=O)Nc2ccc(F)cc2)[C@H](C)CN([C@@H](C)CO)C(=O)c2cc(NC(=O)Nc3ccccc3)ccc2O1,-0.7
C[C@@H]1CN([C@H](C)CO)C(=O)c2cccc(NS(=O)(=O)c3ccc(Cl)cc3)c2O[C@@H]1CN(C)Cc1ccc(Cl)c(Cl)c1,-0.1
C[C@H](CO)N1C[C@H](C)[C@H](CN(C)CC2CCCCC2)Oc2ccc(NC(=O)CCCN(C)C)cc2CC1=O,1.4
COc1ccc(NC(=O)N(C)C[C@H]2Oc3ccc(NC(=O)CCC(F)(F)F)cc3C(=O)N([C@@H](C)CO)C[C@@H]2C)cc1,0.6
C[C@@H]1CCCCO[C@H](CN(C)S(C)(=O)=O)[C@H](C)CN([C@@H](C)CO)C(=O)c2cc(NS(=O)(=O)c3ccccc3)ccc2O1,-0.3
C[C@@H]1CCCCO[C@H](CN(C)C)[C@@H](C)CN([C@@H](C)CO)C(=O)c2cc(NC(=O)CCC(F)(F)F)ccc2O1,1.3
C[C@@H]1CN([C@@H](C)CO)C(=O)CCCn2cc(nn2)CO[C@@H]1CN(C)Cc1ccccc1C(F)(F)F,-0.6
COc1ccc([Si](C)(C)[C@@H]2[C@@H](CCn3cc([C@H](O)c4ccccc4)nn3)O[C@]3(C(=O)N(C)c4ccccc43)[C@H]2C)cc1,-0.7
CC(C)NC(=O)N(C)C[C@H]1Oc2ccc(NC(=O)Nc3ccccc3)cc2CC(=O)N([C@H](C)CO)C[C@H]1C,0.0
Cc1noc(C)c1S(=O)(=O)Nc1ccc2c(c1)C(=O)N([C@H](C)CO)C[C@H](C)[C@H](CN(C)C(=O)Nc1ccccc1)OCCCC[C@H](C)O2,-0.1
C[C@H](CO)N1C[C@H](C)[C@@H](CN(C)CC2CCCCC2)OCCCC[C@H](C)Oc2ccc(N(C)C)cc2C1=O,0.0
NC(=O)COc1ccc(/C=N/NC(=O)CCCCCCC(=O)Nc2ccccc2O)cc1,-1.2
C[C@H](CO)N1C[C@H](C)[C@H](CN(C)Cc2ccc3c(c2)OCO3)Oc2ccc(NC(=O)Cc3ccccc3)cc2CC1=O,0.6
C[C@@H]1CCCCO[C@H](CN(C)C(=O)CCC(F)(F)F)[C@H](C)CN([C@H](C)CO)C(=O)c2cc(NC(=O)Cc3ccccc3)ccc2O1,1.4
CC(C)NC(=O)N(C)C[C@H]1OCCCC[C@H](C)Oc2ccc(NC(=O)Nc3ccc(C(F)(F)F)cc3)cc2C(=O)N([C@H](C)CO)C[C@@H]1C,1.7
CNC[C@@H]1Oc2c(NC(=O)Nc3ccc4c(c3)OCO4)cccc2C(=O)N([C@@H](C)CO)C[C@@H]1C,0.5
C[C@H]1CN([C@@H](C)CO)C(=O)Cc2cc(NC(=O)CCC(F)(F)F)ccc2O[C@H]1CN(C)Cc1ccc2c(c1)OCO2,1.8

# Fetched one by one from above (four):
Molecule,A1 apoptosis 2
CNC[C@@H]1Oc2c(NC(=O)Nc3ccc4c(c3)OCO4)cccc2C(=O)N([C@@H](C)CO)C[C@@H]1C,0.5
Cc1noc(C)c1S(=O)(=O)Nc1ccc2c(c1)C(=O)N([C@H](C)CO)C[C@H](C)[C@H](CN(C)C(=O)Nc1ccccc1)OCCCC[C@H](C)O2,-0.1
C[C@H](CO)N1C[C@H](C)[C@@H](CN(C)CC2CCCCC2)OCCCC[C@H](C)Oc2ccc(N(C)C)cc2C1=O,0.0
CC(C)NC(=O)N(C)C[C@H]1OCCCC[C@H](C)Oc2ccc(NC(=O)Nc3ccc(C(F)(F)F)cc3)cc2C(=O)N([C@H](C)CO)C[C@@H]1C,1.7

# Later entries.
Molecule,A1 apoptosis 2
C[C@@H]1CN([C@H](C)CO)C(=O)c2cc(NC(=O)CCCCCC(=O)Nc3ccccc3N)ccc2O[C@H]1CN(C)S(=O)(=O)c1ccc(F)cc1,0.5
C[C@@H]1CCCCO[C@H](CN(C)Cc2ccc(C(=O)O)cc2)[C@@H](C)CN([C@H](C)CO)C(=O)c2cc(NS(=O)(=O)c3ccc(Cl)cc3)ccc2O1,-1.1
C[C@@H]1CN([C@H](C)CO)C(=O)CCCn2cc(nn2)CO[C@H]1CN(C)Cc1ccccc1C(F)(F)F,1.0
C[C@H]1CN([C@@H](C)CO)C(=O)Cc2cc(NS(=O)(=O)c3ccc(F)cc3)ccc2O[C@H]1CN(C)Cc1ccc(-c2ccccc2)cc1,0.8
C[C@H](CO)N1C[C@H](C)[C@@H](CN(C)C(=O)C2CCCCC2)OCCCC[C@H](C)Oc2ccc(NC(=O)Nc3ccc4c(c3)OCO4)cc2C1=O,0.0
Cc1ccc(S(=O)(=O)N(C)C[C@H]2Oc3ccc(NC(=O)CCC(F)(F)F)cc3CC(=O)N([C@H](C)CO)C[C@@H]2C)cc1,-0.2
Cc1noc(C)c1S(=O)(=O)N(C)C[C@H]1OCCCC[C@H](C)Oc2ccc(NC(=O)NC(C)C)cc2C(=O)N([C@H](C)CO)C[C@H]1C,-0.5
C[C@H](CO)N1C[C@H](C)[C@H](CN(C)S(=O)(=O)c2cccs2)Oc2ccc(NC(=O)C3CC3)cc2C1=O,-0.2

# Continued (three carried over from the part before).
Molecule,A1 apoptosis 2
Cc1ccc(S(=O)(=O)N(C)C[C@H]2Oc3ccc(NC(=O)CCC(F)(F)F)cc3CC(=O)N([C@H](C)CO)C[C@@H]2C)cc1,-0.2
Cc1noc(C)c1S(=O)(=O)N(C)C[C@H]1OCCCC[C@H](C)Oc2ccc(NC(=O)NC(C)C)cc2C(=O)N([C@H](C)CO)C[C@H]1C,-0.5
C[C@H](CO)N1C[C@H](C)[C@H](CN(C)S(=O)(=O)c2cccs2)Oc2ccc(NC(=O)C3CC3)cc2C1=O,-0.2
C[C@H](CO)N1C[C@H](C)[C@@H](CN(C)S(=O)(=O)c2cccs2)OCCCC[C@H](C)Oc2ccc(NC(=O)Cc3ccccc3)cc2C1=O,1.2
CC(C)NC(=O)Nc1cccc2c1O[C@H](CN(C)S(=O)(=O)c1ccc(Cl)cc1)[C@H](C)CN([C@H](C)CO)C2=O,0.8
Cc1noc(C)c1S(=O)(=O)Nc1ccc2c(c1)CC(=O)N([C@H](C)CO)C[C@H](C)[C@H](CN(C)CC1CCCCC1)O2,-1.4
C[C@@H]1CCCCO[C@@H](CN(C)Cc2ccc(C(=O)O)cc2)[C@H](C)CN([C@H](C)CO)C(=O)c2cc(NC(=O)Nc3ccc4c(c3)OCO4)ccc2O1,3.2
O=C(C1=C[C@@H](c2ccc3c(c2)Cc2ccccc2-3)C[C@@H](OCc2ccc(CO)cc2)O1)N1CCCCC1,-1.9
C[C@H]1CN([C@@H](C)CO)C(=O)c2cccc(NC(=O)Nc3ccc(C(F)(F)F)cc3)c2O[C@@H]1CN(C)Cc1ccc(Oc2ccccc2)cc1,0.8
O=C1c2ccccc2C(=O)N1CC1CCN(Cc2cccc(OCCO)c2)CC1,0.6
Cc1noc(C)c1NC(=O)N(C)C[C@@H]1Oc2ccc(NC(=O)CCN3CCOCC3)cc2C(=O)N([C@@H](C)CO)C[C@H]1C,-0.4
C[C@H]1CN([C@@H](C)CO)C(=O)c2cccc(NC(=O)c3nc4ccccc4s3)c2O[C@@H]1CN(C)S(=O)(=O)c1cccs1,1.4
C[C@@H]1CN([C@@H](C)CO)C(=O)c2cc(NC(=O)Nc3ccc4c(c3)OCO4)ccc2O[C@@H]1CN(C)Cc1ccncc1,1.5
C[C@@H]1CN([C@H](C)CO)C(=O)c2cccc(NC(=O)c3ccncc3)c2O[C@H]1CN(C)S(=O)(=O)c1cn(C)cn1,-0.5
C[C@H]1CN([C@@H](C)CO)C(=O)Cc2cc(NS(C)(=O)=O)ccc2O[C@@H]1CN(C)C(=O)Nc1ccc(C(F)(F)F)cc1,-0.3
C[C@H]1CN([C@@H](C)CO)C(=O)c2cccc(NC(=O)C3CC3)c2O[C@@H]1CN(C)S(=O)(=O)c1cccs1,-0.3
C[C@H]1CN([C@@H](C)CO)C(=O)c2cc(NC(=O)Cc3ccccc3)ccc2O[C@H]1CN(C)S(=O)(=O)c1ccccc1,-0.6
Cc1ccc(S(=O)(=O)N(C)C[C@@H]2OCCCC[C@@H](C)Oc3ccc(NS(C)(=O)=O)cc3C(=O)N([C@H](C)CO)C[C@H]2C)cc1,0.2
COc1ccc(CN(C)C[C@@H]2Oc3ccc(NS(=O)(=O)c4ccc(Cl)cc4)cc3CC(=O)N([C@@H](C)CO)C[C@H]2C)cc1,-1.2
CC(C)NC(=O)Nc1ccc2c(c1)C(=O)N([C@@H](C)CO)C[C@@H](C)[C@H](CN(C)S(C)(=O)=O)O2,-0.9
C[C@H]1CCCCO[C@H](CN(C)S(=O)(=O)c2ccc(Cl)cc2)[C@@H](C)CN([C@@H](C)CO)C(=O)c2cc(NC(=O)Nc3ccc4c(c3)OCO4)ccc2O1,-2.1
CC(C)NC(=O)Nc1ccc2c(c1)C(=O)N([C@@H](C)CO)C[C@@H](C)[C@H](CN(C)S(=O)(=O)c1cn(C)cn1)OCCCC[C@H](C)O2,-0.5
C[C@@H]1CCCCO[C@H](CN(C)C(=O)Nc2ccc(C(F)(F)F)cc2)[C@@H](C)CN([C@H](C)CO)C(=O)c2cc(NC(=O)Nc3ccccc3)ccc2O1,0.8
C[C@@H]1CN([C@H](C)CO)C(=O)c2cccc(NS(=O)(=O)c3ccc(F)cc3)c2O[C@H]1CN(C)Cc1ccc(C(=O)Nc2ccccc2N)cc1,0.7
C[C@@H]1CN([C@@H](C)CO)C(=O)c2cccc(NS(=O)(=O)c3ccc(F)cc3)c2O[C@H]1CN(C)Cc1ccc(C(F)(F)F)cc1,-0.8
C[C@H](CO)N1C[C@H](C)[C@@H](CN(C)C(=O)Nc2ccc(F)cc2)OCCCC[C@H](C)Oc2ccc(NS(=O)(=O)c3cccs3)cc2C1=O,0.5
C[C@H](CO)N1C[C@H](C)[C@@H](CN(C)C(=O)Nc2cccc3ccccc23)Oc2c(NC(=O)c3ccc(-c4nccs4)cc3)cccc2C1=O,1.7
C[C@@H]1CN([C@@H](C)CO)C(=O)Cc2cc(NC(=O)c3ccncc3)ccc2O[C@@H]1CN(C)S(C)(=O)=O,0.7
Cc1noc(C)c1NC(=O)N(C)C[C@@H]1OCCCC[C@H](C)Oc2ccc(NC(=O)NC(C)C)cc2C(=O)N([C@H](C)CO)C[C@@H]1C,-0.9
O=C(N/N=C/c1cccc(O)c1)c1ccccn1,-10
C[C@H]1CN([C@@H](C)CO)C(=O)c2cccc(NC(=O)c3ccc(-c4nccs4)cc3)c2O[C@H]1CN(C)S(=O)(=O)c1cccs1,-0.8
C[C@H](CO)N1C[C@H](C)[C@@H](CN(C)S(=O)(=O)c2cn(C)cn2)OCCCC[C@H](C)Oc2ccc(NS(C)(=O)=O)cc2C1=O,0.0
O=C(NO)c1cccc(C(=O)N/N=C/c2cn(S(=O)(=O)c3ccccc3)c3ccccc23)c1,-0.8
COc1ccc(NC(=O)Nc2ccc3c(c2)C(=O)N([C@H](C)CO)C[C@@H](C)[C@H](CN(C)C(=O)Nc2ccc(OC)cc2)O3)cc1,0.7
CN(CCO)c1ccc(/C=N/NC(=O)CCCCCCC(=O)NO)cc1,1.8

# Only part of the results is shown; rates above refer to the full screens.
